GALR2 agonist – activates the human galanin receptor 2. activation, %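 (tested at 5 µM)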. O43603. actives 0.48% (n = 140,000). AID 803. GALR2-expressing cells, agonist activation read-out;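 active = above mean plus 3 SD of all compounds, about 5% in these data, not always enough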;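 note: 0% = vehicle buffer wells and 100% = reference agonist at full effect; tested in CHO reporter cells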
PKD1 kinase inh – inhibitors of human PKD1 kinase; Q15139; AID 797; actives 0.056% (n = 200,000); inhibition, %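 (about 10 µM by stock and volumes)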; PKD1 kinase fluorescence polarization assay;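 active = inhibition of 50% or more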;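 note: controls were vehicle for no effect and a reference inhibitor for full effect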
Target sequence (Q15139 whole entry, looked up): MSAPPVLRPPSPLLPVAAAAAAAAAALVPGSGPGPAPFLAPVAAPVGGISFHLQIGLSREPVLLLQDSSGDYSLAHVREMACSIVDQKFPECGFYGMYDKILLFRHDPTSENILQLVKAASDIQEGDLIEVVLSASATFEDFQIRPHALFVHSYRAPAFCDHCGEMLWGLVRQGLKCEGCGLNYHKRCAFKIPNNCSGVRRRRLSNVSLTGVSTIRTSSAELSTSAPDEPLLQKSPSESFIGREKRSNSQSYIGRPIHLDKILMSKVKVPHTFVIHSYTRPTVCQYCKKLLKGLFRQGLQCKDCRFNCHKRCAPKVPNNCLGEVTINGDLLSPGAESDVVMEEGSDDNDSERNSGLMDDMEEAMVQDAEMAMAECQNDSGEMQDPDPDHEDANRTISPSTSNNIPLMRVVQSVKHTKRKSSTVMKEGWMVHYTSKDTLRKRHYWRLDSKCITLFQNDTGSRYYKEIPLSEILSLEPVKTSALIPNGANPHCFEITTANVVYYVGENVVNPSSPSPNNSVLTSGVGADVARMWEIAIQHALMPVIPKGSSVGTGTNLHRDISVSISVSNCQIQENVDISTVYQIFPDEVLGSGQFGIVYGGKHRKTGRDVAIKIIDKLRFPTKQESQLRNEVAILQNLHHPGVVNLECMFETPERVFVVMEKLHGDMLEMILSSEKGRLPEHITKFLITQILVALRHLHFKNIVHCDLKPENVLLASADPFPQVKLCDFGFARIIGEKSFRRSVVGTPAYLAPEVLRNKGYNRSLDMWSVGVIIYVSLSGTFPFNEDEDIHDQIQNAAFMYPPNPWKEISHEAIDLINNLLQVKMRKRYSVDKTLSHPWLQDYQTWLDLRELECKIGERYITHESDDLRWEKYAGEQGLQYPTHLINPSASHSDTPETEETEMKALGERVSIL
HSV augment – increases HSV replication in cells; actives 0.005% (n = 220,000); maximum fold increase; AID 1956; HSV replication augmentation in cells, fold increase;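 active = peak rise of 1.5-fold or more in the series; tested in PC3 cells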;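 note: first round at 10 µM; read as green reporter fluorescence; hits show the peak of a series up to 25 µM; 1 = signal of infected wells without compound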
RGS16-Gao – RGS16-Galphao interaction regulator (human); O15492+P09471; bead-based flow cytometry RGS16-Galphao binding, fluorescence; actives lie on both sides; binding response (% of control), % at 10 µM; actives 0.38% (n = 220,000);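 active = below 25% or above 175%, edge rows of some plates excepted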;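 note: Galphao activated by GDP with aluminum fluoride before binding; 100% = wells without compound and 0% = beads without RGS; some results beyond the cut were filed as inactive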
Insulin prom inh – TRM-6 insulin promoter activity inhibition; TRM-6 cells (human fetal islet line), insulin promoter-eGFP reporter, imaging; reporter expression induced with tamoxifen; inhibition, % at 2 µM; actives 0.9% (n = 130,000);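 active = inhibition above the mean plus 3 SD, with well images judged a real hit on visual review, cut at about 60% in these data, passing the limit was not always enough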
Insulin prom inh cell count – recorded beside Insulin prom inh, whose call it bears; normalized cell count, %; measured here: cell count, toxicity; reference of the scale not given here;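 cells exposed to compound for 48 h; stained nuclei by imaging scaled within each plate; lower means fewer cells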
HSV augment primary fold – further read-out of HSV augment, marked with its call; fold increase; compound at 10 µM; measured here: primary screen fold increase 10 uM; tested in PC3 cells;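 GFP signal in the first replicate; 1 = infected wells without compound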
Starred values were filed as active, the others as inactive. Random draw from the library. Share with any hit: about 1.3%.

How did Cc1ccc(SCC(=O)NC2CCS(=O)(=O)C2)cc1 (centres undefined) do in these assays?
PKD1 kinase inh: 1; HSV augment: inactive; RGS16-Gao: 97; HSV augment primary fold: 0.82

How did CN(C(=S)Nc1ccc(Oc2ccccc2)cc1)C1CCCCC1 do in these assays?
GALR2 agonist: -1.5; PKD1 kinase inh: -1; HSV augment: inactive; RGS16-Gao: 14*; Insulin prom inh: 33; Insulin prom inh cell count: 120; HSV augment primary fold: 0.97

What do the screens show for `CN(C)CC#CCOC(c1ccccc1)c1ccccc1`?
PKD1 kinase inh: -3; HSV augment: inactive; RGS16-Gao: 115; HSV augment primary fold: 0.94

How did Brc1cccc(-c2n[nH]c(-c3ccccc3)n2)c1 do in these assays?
GALR2 agonist: 0.0; PKD1 kinase inh: 10; RGS16-Gao: 95; Insulin prom inh: 39; Insulin prom inh cell count: 190

How did COc1ccc(N2CCN(Cc3cc(=O)oc4ccc(C)cc34)CC2)cc1 do in these assays?
GALR2 agonist: -1.2; PKD1 kinase inh: 0; HSV augment: inactive; RGS16-Gao: 118; Insulin prom inh: -3; Insulin prom inh cell count: 130; HSV augment primary fold: 0.81

Results for C=CCN(C(=O)Nc1ccc2oc(C)nc2c1)c1ccccc1 ?
GALR2 agonist: -4.2; PKD1 kinase inh: 6; HSV augment: inactive; RGS16-Gao: 103; Insulin prom inh: 3; Insulin prom inh cell count: 57; HSV augment primary fold: 1

What do the screens show for `COC(=O)CSC1=C(C#N)C(c2ccc(Cl)cc2)C(C(=O)OC)C(=O)N1` (centres undefined)?
GALR2 agonist: -1.4; PKD1 kinase inh: -9; RGS16-Gao: 111

How did Cc1nc(Cl)c(C(=O)NC(C)(C)C)c(C)c1Cl do in these assays?
GALR2 agonist: -1.2; PKD1 kinase inh: 2; HSV augment: inactive; RGS16-Gao: 107; Insulin prom inh: -19; Insulin prom inh cell count: 133; HSV augment primary fold: 0.94

What do the screens show for `CCOc1ccc(Cc2noc3c2C(=O)CCC3)cc1OCC`?
PKD1 kinase inh: -1; HSV augment: inactive; RGS16-Gao: 361; Insulin prom inh: -56; Insulin prom inh cell count: 99; HSV augment primary fold: 0.94

How did O=C(CCn1c(=O)oc2ccccc21)NCCCN1CCCC1=O do in these assays?
GALR2 agonist: -1.3; PKD1 kinase inh: -3; HSV augment: inactive; RGS16-Gao: 96; HSV augment primary fold: 0.73

How did O=C(O)c1cc(N2C(=O)C3CCCCC3C2=O)ccc1NCc1cccnc1 (centres undefined) do in these assays?
PKD1 kinase inh: -5; HSV augment: inactive; RGS16-Gao: 103; Insulin prom inh: -20; Insulin prom inh cell count: 133; HSV augment primary fold: 0.98

What do the screens show for `CN1CCCN(C(=O)c2cc(-c3cccc4ccccc34)nc3ccccc23)CC1`?
HSV augment: inactive; RGS16-Gao: 103; HSV augment primary fold: 0.89

In the list so far, three contain sulfur.
How did Cc1ccc(SCC(=O)NC2CCS(=O)(=O)C2)cc1 (centres undefined) do in these assays?
PKD1 kinase inh: 1; HSV augment: inactive; RGS16-Gao: 97; HSV augment primary fold: 0.82

How did CN(C(=S)Nc1ccc(Oc2ccccc2)cc1)C1CCCCC1 do in these assays?
GALR2 agonist: -1.5; PKD1 kinase inh: -1; HSV augment: inactive; RGS16-Gao: 14*; Insulin prom inh: 33; Insulin prom inh cell count: 120; HSV augment primary fold: 0.97

What do the screens show for `COC(=O)CSC1=C(C#N)C(c2ccc(Cl)cc2)C(C(=O)OC)C(=O)N1` (centres undefined)?
GALR2 agonist: -1.4; PKD1 kinase inh: -9; RGS16-Gao: 111

Next part.
How did CCOc1ccc(C2C(C#N)=C(N)Oc3nc[nH]c(=O)c32)cc1OC (centres undefined) do in these assays?
GALR2 agonist: -0.7; PKD1 kinase inh: -1; HSV augment: inactive; RGS16-Gao: 93; Insulin prom inh: -50; Insulin prom inh cell count: 111; HSV augment primary fold: 1.1

Results for CCC(NC(=O)NC1CCCCC1)c1ccccc1 (centres undefined) ?
PKD1 kinase inh: 3; HSV augment: inactive; RGS16-Gao: 99; HSV augment primary fold: 1.2

How did CCn1cc(CNC(=O)c2cccc([N+](=O)[O-])c2)cn1 do in these assays?
GALR2 agonist: -0.2; PKD1 kinase inh: -4; HSV augment: inactive; RGS16-Gao: 33; Insulin prom inh: -15; Insulin prom inh cell count: 104; HSV augment primary fold: 0.96

What do the screens show for `CCOC(=O)N1CCN(C(=O)Nc2cccc(Cl)c2)CC1`?
GALR2 agonist: -1.9; PKD1 kinase inh: 3; HSV augment: inactive; RGS16-Gao: 104; HSV augment primary fold: 0.91

What do the screens show for `Cn1c(N2CCOCC2)c(/C=N/OC(=O)c2cccnc2Cl)c2ccccc21`?
PKD1 kinase inh: 0; HSV augment: inactive; RGS16-Gao: 102; HSV augment primary fold: 1.1

How did COc1cc(C(=O)c2ccccc2)c(OC)cc1C(=O)Nc1ccc(O)cc1 do in these assays?
PKD1 kinase inh: -4; HSV augment: inactive; RGS16-Gao: 116; HSV augment primary fold: 0.92

How did S=c1[nH]c2cc(Br)cnc2[nH]1 do in these assays?
HSV augment: inactive; RGS16-Gao: 97; HSV augment primary fold: 1.1

How did Cc1ccc2nc(CSc3nnc(-c4ccncc4)n3C)cc(=O)n2c1 do in these assays?
PKD1 kinase inh: 1; RGS16-Gao: 102; Insulin prom inh: 36; Insulin prom inh cell count: 86

Results for CC(C)(C)N1CC(COc2ccccc2)OC1=O (centres undefined) ?
GALR2 agonist: -2.6; PKD1 kinase inh: 1; HSV augment: inactive; RGS16-Gao: 98; Insulin prom inh: -11; Insulin prom inh cell count: 61; HSV augment primary fold: 0.74

How did Cc1ccc(/C=N/Nc2ncnc3nc[nH]c23)cc1 do in these assays?
HSV augment: inactive; RGS16-Gao: 98; HSV augment primary fold: 0.93

What do the screens show for `CC(c1ccccc1)n1cc(C(=O)NCc2ccncc2)nn1` (centres undefined)?
GALR2 agonist: -0.9; PKD1 kinase inh: -5; HSV augment: inactive; RGS16-Gao: 101; Insulin prom inh: 42; Insulin prom inh cell count: 135; HSV augment primary fold: 0.91

Results for O=C(c1cccc(Br)c1)N1CCN(C(=O)c2cccc(Br)c2)CC1 ?
GALR2 agonist: -1.4; PKD1 kinase inh: 13; HSV augment: inactive; RGS16-Gao: 122; Insulin prom inh: 33; Insulin prom inh cell count: 135; HSV augment primary fold: 0.86

What do the screens show for `COc1ccc(CNC(=O)C2CC(c3cccc([N+](=O)[O-])c3)=NO2)cc1` (centres undefined)?
GALR2 agonist: -1.1; PKD1 kinase inh: -4; HSV augment: inactive; RGS16-Gao: 96; Insulin prom inh: -3; Insulin prom inh cell count: 99; HSV augment primary fold: 0.9

Results for Nc1nonc1-c1noc(-c2ccccc2)n1 ?
GALR2 agonist: -0.9; PKD1 kinase inh: 1; HSV augment: inactive; RGS16-Gao: 100; Insulin prom inh: -128; Insulin prom inh cell count: 118; HSV augment primary fold: 0.93

How did COc1ccc(CCC(=O)OC(C)C(=O)c2ccc(C)cc2)cc1 (centres undefined) do in these assays?
GALR2 agonist: -1.6; PKD1 kinase inh: 4; HSV augment: inactive; RGS16-Gao: 114; Insulin prom inh: -62; Insulin prom inh cell count: 68; HSV augment primary fold: 0.74

Results for O=C1c2ccccc2C(=O)N1CCOc1ccccc1 ?
GALR2 agonist: -3.5; PKD1 kinase inh: 4; HSV augment: inactive; Insulin prom inh: -7; Insulin prom inh cell count: 152; HSV augment primary fold: 1

How did COc1ccc(S(=O)(=O)Cc2ccc(C(=O)NCCc3cc(OC)ccc3OC)o2)cc1 do in these assays?
PKD1 kinase inh: -4; HSV augment: inactive; RGS16-Gao: 98; HSV augment primary fold: 0.88

Results for CCOC(=O)c1c(-c2ccc(C)cc2)csc1NC(=S)NC(=O)c1ccccc1 ?
GALR2 agonist: 0.5; PKD1 kinase inh: 0; HSV augment: inactive; RGS16-Gao: 253; Insulin prom inh: 7; Insulin prom inh cell count: 166; HSV augment primary fold: 0.92

Results for COC(=O)CCC(=O)c1oc2ccc(OC)cc2c1N ?
GALR2 agonist: -0.3; PKD1 kinase inh: -1; HSV augment: inactive; RGS16-Gao: 101; Insulin prom inh: 7; Insulin prom inh cell count: 118; HSV augment primary fold: 0.95

How did CN(C)c1nnnn1Cc1ccccc1 do in these assays?
PKD1 kinase inh: -4; RGS16-Gao: 106; Insulin prom inh: -23; Insulin prom inh cell count: 73

What do the screens show for `Cc1nc2sc(C(c3ccc(Cl)cc3)N3CCN(c4ccccc4F)CC3)c(O)n2n1` (centres undefined)?
GALR2 agonist: 0.5; PKD1 kinase inh: 2; HSV augment: inactive; RGS16-Gao: 99; HSV augment primary fold: 0.94

What do the screens show for `Cn1c(Cn2nnc3ccccc32)nnc1SCC(=O)c1ccccc1F`?
GALR2 agonist: -4.6; PKD1 kinase inh: -1; HSV augment: inactive; RGS16-Gao: 102; Insulin prom inh: -1; Insulin prom inh cell count: 85; HSV augment primary fold: 0.86

Results for Cn1c(=O)cc(OCCCC(=O)NCc2ccccn2)c2ccccc21 ?
GALR2 agonist: -1.2; PKD1 kinase inh: -7; HSV augment: inactive; RGS16-Gao: 136; Insulin prom inh: -34; Insulin prom inh cell count: 121; HSV augment primary fold: 0.83

Results for CCOC(=O)c1sc2ccc(S(=O)(=O)N3CC(C)CC(C)C3)cc2c1N (centres undefined) ?
GALR2 agonist: -1.7; PKD1 kinase inh: -6; HSV augment: inactive; RGS16-Gao: 97; Insulin prom inh: -28; Insulin prom inh cell count: 99; HSV augment primary fold: 0.93

Fetched one by one from above (two):
Results for CCC(NC(=O)NC1CCCCC1)c1ccccc1 (centres undefined) ?
PKD1 kinase inh: 3; HSV augment: inactive; RGS16-Gao: 99; HSV augment primary fold: 1.2

What do the screens show for `Cn1c(Cn2nnc3ccccc32)nnc1SCC(=O)c1ccccc1F`?
GALR2 agonist: -4.6; PKD1 kinase inh: -1; HSV augment: inactive; RGS16-Gao: 102; Insulin prom inh: -1; Insulin prom inh cell count: 85; HSV augment primary fold: 0.86

(more compounds)
How did CCOC(=O)N1CCN(C(=O)c2ccc(OC)cc2)CC1 do in these assays?
PKD1 kinase inh: -8; HSV augment: inactive; RGS16-Gao: 103; HSV augment primary fold: 0.91

How did O=C(COC(=O)c1cccnc1)NC1CCCc2ccccc21 (centres undefined) do in these assays?
PKD1 kinase inh: -3; HSV augment: inactive; RGS16-Gao: 104; HSV augment primary fold: 1.1

How did CC[n+]1ccc2cc(OC)c(OC)cc2c1Cc1ccc(OC)c(OC)c1 do in these assays?
PKD1 kinase inh: -5; HSV augment: inactive; RGS16-Gao: 75; Insulin prom inh: -5; Insulin prom inh cell count: 76; HSV augment primary fold: 1.1

What do the screens show for `CCC(=O)N(Cc1ccco1)Cc1cc2cc3c(cc2[nH]c1=O)OCO3`?
PKD1 kinase inh: -7; HSV augment: inactive; RGS16-Gao: 109; HSV augment primary fold: 1

How did C=CCC1(C)C(=O)N(c2ccccc2)c2ccccc21 (centres undefined) do in these assays?
GALR2 agonist: -1.0; PKD1 kinase inh: -6; HSV augment: inactive; RGS16-Gao: 69; HSV augment primary fold: 1

What do the screens show for `Cc1ccc(/C=N/NC(=O)c2ccc(Cn3cc([N+](=O)[O-])cn3)o2)cc1`?
GALR2 agonist: 0.4; PKD1 kinase inh: 14; HSV augment: inactive; RGS16-Gao: 88; Insulin prom inh: -117; Insulin prom inh cell count: 63; HSV augment primary fold: 0.86

What do the screens show for `Cc1[nH]c2ccccc2c1/C=N/NC(=O)c1cc(C(C)C)[nH]n1`?
HSV augment: inactive; RGS16-Gao: 105; HSV augment primary fold: 0.81

How did Cc1cc(C)c(C)c(Oc2ncnc(N)c2[N+](=O)[O-])c1 do in these assays?
GALR2 agonist: -1.1; PKD1 kinase inh: 1; HSV augment: inactive; RGS16-Gao: 102; Insulin prom inh: 3; Insulin prom inh cell count: 73; HSV augment primary fold: 0.99

How did O=C(COc1ccc2ccccc2c1)N1CCN(c2ccccc2O)CC1 do in these assays?
GALR2 agonist: -3.4; PKD1 kinase inh: -2; HSV augment: inactive; RGS16-Gao: 101; Insulin prom inh: 30; Insulin prom inh cell count: 93; HSV augment primary fold: 0.79

How did COc1ccc(Nc2nc(-c3cccs3)nc3ccccc23)cc1 do in these assays?
GALR2 agonist: -0.3; PKD1 kinase inh: -4; HSV augment: inactive; RGS16-Gao: 105; Insulin prom inh: -13; Insulin prom inh cell count: 129; HSV augment primary fold: 0.73

Results for CC(=O)N1CCN(CC(=O)Nc2cc(S(=O)(=O)N3CCOCC3)ccc2C)CC1 ?
PKD1 kinase inh: -5; HSV augment: inactive; RGS16-Gao: 100; HSV augment primary fold: 0.88

Results for O=c1c2ccccc2c(C=NCCCN2CCOCC2)c(O)n1Cc1ccc2c(c1)OCO2 ?
PKD1 kinase inh: -1; HSV augment: inactive; RGS16-Gao: 100; HSV augment primary fold: 0.77

Compound activity as filed in PubChem.
